From PubChem BioAssay
RE007 growth inh = qHTS Assay for Inhibitors of the HIV-1 protein Vpr | S. pombe RE007 Vpr strain, BacTiter-Glo ATP luminescence, 24 h; control for the full effect not named in the record | Potency, µM (doses to about 92.2 µM), for inactives: at the top dose activity change, negative = less growth | 0.21% of 360,000 active; active = well fitted falling curve with a large enough effect; inconclusive = small, poorly fitted or top-dose-only effect; inactive = no such curve, though single readings can be large or run the other way;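 also: % is scaled to controls: 0 for no effect and ±100 for the full control effect; nearly all actives have a fitted effect of over 50% in size; the assay follows cell death caused by Vpr and the record does not say whether a fall means rescue or toxicity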
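Fission yeast strain RE007, carrying one chromosomally integrated HIV-1 vpr copy, was seeded at OD 0.01 in PMG+AL medium with 23 nL pinned compound. After 24 h at 30 °C and 99% humidity, viability was read by BacTiter-Glo luminescence.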
Cruzain inh noDet = qHTS Assay for Promiscuous and Specific Inhibitors of Cruzain (without detergent) | purified cruzain, Z-FR-AMC fluorescence, no detergent | 2.3% of 200,000 active | Potency, µM, for inactives: max response, negative = inhibition, usual class: inhibitors | Cruzipain (Trypanosoma cruzi), P25779;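 also: plate controls were enzyme without inhibitor for no effect and buffer without enzyme for full effect; nearly all actives have a fitted effect of over 40% in size; top concentration of the series not given in the record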
Target sequence (P25779 123-467 limits assumed): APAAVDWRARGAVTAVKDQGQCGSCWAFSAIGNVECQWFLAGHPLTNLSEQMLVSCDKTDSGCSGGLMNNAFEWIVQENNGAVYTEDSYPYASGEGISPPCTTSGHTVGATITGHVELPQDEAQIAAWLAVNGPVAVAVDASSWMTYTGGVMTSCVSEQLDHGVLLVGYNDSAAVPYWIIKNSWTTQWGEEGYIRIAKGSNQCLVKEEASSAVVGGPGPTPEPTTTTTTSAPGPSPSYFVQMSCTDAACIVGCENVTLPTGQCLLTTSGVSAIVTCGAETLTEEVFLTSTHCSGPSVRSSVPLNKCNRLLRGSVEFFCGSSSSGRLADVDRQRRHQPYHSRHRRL
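Detergent-free condition (0.00005% Triton X-100) in acetate buffer pH 5.5 with DTT. 1.5 nM enzyme and compound were pre-mixed 15 min, then 2 uM Z-FR-AMC substrate added; reaction progress from fluorescence change between first and third reads (60 s).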
2A StopGo = High Throughput Screening for Foot and Mouth Disease Virus Antivirals | human cells with a luciferase reporter of 2A StopGo recoding; control for the full effect not named in the record | Potency, µM (highest dose often 57.9 µM), for the others: at the highest dose signal change, negative = less light | 1.2% of 410,000 active; active = well fitted falling curve with a large enough effect; inconclusive = small, poorly fitted or top-dose-only effect; inactive = no such curve, though single readings can be large or run the other way; tested in HEK293T cells; also: % is scaled to controls: 0 for no effect and ±100 for the full control effect; nearly all actives have a fitted effect of over 45% in size; luciferase light after 4 h
NS1 function inh = qHTS Assay for Inhibitors of Influenza NS1 Protein Function | S. cerevisiae slowed by influenza A NS1, growth recovery by OD600 | Potency, µM (titrated, usually from 46.1 µM), for inactives: at the top dose activity, positive = more growth | 0.4% of 270,000 active; active means well fitted rising curve with a large enough effect; inconclusive means small, poorly fitted or top-dose-only effect; inactive means no such curve, though single readings can be large or run the other way; also: nearly all actives have a fitted effect of over 50% in size
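Growth recovery, yeast-based: influenza A NS1 expressed in S. cerevisiae causes slow growth, and suppressors are detected by OD600. The parent strain without NS1 is used as positive control.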
Lassa entry inh = qHTS for Inhibitors of binding or entry into cells for Lassa Virus; Lassa virus pseudotype entry inhibition, cell reporter; control for the full effect not named in the record; Potency, µM (titrated, usually from 37.9 µM), for the others: at the top dose activity change, negative = inhibition, hits mostly inhibitors; 1.2% of 300,000 active; active means well fitted inhibition curve with a large enough effect; inconclusive means small, poorly fitted or top-dose-only effect, or effect the other way; inactive means flat fitted curve, though single readings scatter; tested in HEK293 cells; also: % is scaled to controls: 0 for no effect and ±100 for the full control effect; nearly all actives have a fitted effect of over 50% in size; luciferase read-out
Marburg entry inh = qHTS for inhibitors of binding or entry into cells for Marburg Virus; Marburg virus pseudotyped entry inhibition, cell reporter; control for the full effect not named in the record; about a third of the inactives were read at about 46 µM; Potency, µM (doses to about 37.8 µM), for inactives: at the highest dose activity change, negative = inhibition, usual class: inhibitors; 1.8% of 300,000 active; active = well fitted inhibition curve with a large enough effect; inconclusive = small, poorly fitted or top-dose-only effect, or effect the other way; inactive = flat fitted curve, though single readings scatter; tested in HEK293 cells; about a fifth of its hits are not listed in these tables; also: % is scaled to controls: 0 for no effect and ±100 for the full control effect; luciferase read-out
SARS PLpro yeast = qHTS of Yeast-based Assay for SARS-CoV PLP; S. cerevisiae expressing SARS-CoV PLpro, growth rescue; control for the full effect not named in the record; Potency, µM (doses to about 32.9 µM), without a hit: at the top dose activity, positive = growth rescue; 0.19% of 330,000 active; active means well fitted rising curve with a large enough effect; inconclusive means small, poorly fitted or top-dose-only effect; inactive means no such curve, though single readings can be large or run the other way; also: 0% is about no effect; nearly all actives have a fitted effect of over 55% in size; growth read by luminescence after 48 h
Cruzain inh Det = qHTS Assay for Promiscuous and Specific Inhibitors of Cruzain (with detergent); Cruzipain (Trypanosoma cruzi), P25779; purified cruzain, Z-FR-AMC fluorescence, 0.01% Triton; Potency, µM, inactives show max response, negative = inhibition, actives largely listed as inhibitors; 0.43% of 200,000 active;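 also: plate controls were neutral wells for no effect and buffer without enzyme for full effect; nearly all actives have a fitted effect of over 40% in size; top concentration of the series not given in the record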
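Sodium acetate buffer (100 mM, pH 5.5) containing 5 mM DTT and 0.01% Triton X-100 hosted 1.5 nM cruzain and test compound for 15 min at room temperature. Cleavage of 2 uM Z-FR-AMC was then tracked by fluorescence.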
* hit, by the source's call; [ ] = dose if it differs, or a comment. Unless noted, calls follow the shape of the dose curve; as a rule, active = well fitted curve in the direction sought with a large enough effect; inconclusive = small, poorly fitted or top-dose-only effect, or another doubt; inactive = no such curve, though single readings can be large; an effect the other way counts as inactive or inconclusive. Potency is read from the fitted curve at half-maximal effect.

CCOc1ccc(NC(=O)Cn2nnc(C(=O)NCCc3ccccc3)c2N)cc1 was read as Cruzain inh noDet -19%, 2A StopGo -15%, Lassa entry inh 5%[46.1 µM], Marburg entry inh 5%[46.1 µM] and Cruzain inh Det -0.5%.
Screening CCOC(=O)C1CCN(S(=O)(=O)c2cccc(-c3cn4cc(Cl)ccc4n3)c2)CC1 returned RE007 growth inh 8%, Cruzain inh noDet -19%, 2A StopGo inconclusive, NS1 function inh 2%, Lassa entry inh -20%, Marburg entry inh -12%, SARS PLpro yeast 0% and Cruzain inh Det 1.9%.
For COc1ccc(CN(C(=O)c2ccc(CN3CCOCC3)o2)C(C(=O)NCC2CCCO2)c2ccc(F)cc2)cc1 (stereo not given) the results were RE007 growth inh 4%, 2A StopGo 17%, NS1 function inh -1%, Lassa entry inh -2% and SARS PLpro yeast -1%.
`CC(O)CNCc1ccc(-c2ccccc2)cc1` (stereo not given) gave RE007 growth inh 11%, Cruzain inh noDet -4%, 2A StopGo 10%, NS1 function inh -11%, Lassa entry inh 15%, Marburg entry inh -23%, SARS PLpro yeast -7% and Cruzain inh Det 2.2%.
Screening CCCCN1C(=O)C(=O)N(c2ccccc2)C1=S returned RE007 growth inh 2%, Cruzain inh noDet -6%, 2A StopGo 5%, NS1 function inh -28%, Lassa entry inh 8%, Marburg entry inh -22%, SARS PLpro yeast 19% and Cruzain inh Det -2.1%.
Brc1ccc(C2CC(c3ccccc3)=Nc3ccccc3N2)cc1 (stereo not given) was read as RE007 growth inh inconclusive, Cruzain inh noDet inconclusive, 2A StopGo 32%[activator], NS1 function inh -28%, Lassa entry inh -19%, Marburg entry inh -42%, SARS PLpro yeast -49% and Cruzain inh Det -5.7%.
COc1cccc(-n2c(=O)[nH]cc(C(=O)Nc3ccc4c(c3)OCCO4)c2=O)c1 was read as RE007 growth inh 3%, Cruzain inh noDet 27%, 2A StopGo -5%, NS1 function inh -35%, SARS PLpro yeast -16% and Cruzain inh Det -8.7%.
`CSCCC(NC(=O)c1ccccc1Cl)C(=O)NC1CCN(Cc2ccccc2)CC1` (stereo not given) gave RE007 growth inh -2%, 2A StopGo -20%, NS1 function inh -2%, Lassa entry inh -1%, Marburg entry inh -11% and SARS PLpro yeast inconclusive.
For Cc1cccc(NC(=O)c2cc(NC(=O)c3ccccc3)ccc2N2CCCCC2)c1 the results were RE007 growth inh -1%, Cruzain inh noDet -3%, 2A StopGo 9%, NS1 function inh inconclusive, Lassa entry inh 2%, Marburg entry inh 2%, SARS PLpro yeast -2% and Cruzain inh Det -1.4%.
`COc1ccc(Cl)cc1NC(=O)CSc1nc(-c2ccccc2)cc(=O)[nH]1` gave RE007 growth inh 3%, 2A StopGo -23%, NS1 function inh -48% and SARS PLpro yeast 2%.
COc1cc(C(C(=O)NC2CCCCC2)N(C(=O)Cc2c[nH]c3ccccc23)c2ccccc2C)cc(OC)c1OC (stereo not given) was read as RE007 growth inh 5%, Cruzain inh noDet inconclusive, 2A StopGo -13%, NS1 function inh inconclusive, Lassa entry inh -23%, Marburg entry inh inconclusive, SARS PLpro yeast -2% and Cruzain inh Det -7.2%.
Screening O=C(CN1C(=O)NC2(CCc3ccccc32)C1=O)c1ccccc1 (stereo not given) returned RE007 growth inh 17%, 2A StopGo -14%, NS1 function inh 9%, Lassa entry inh -3%[46.1 µM], Marburg entry inh 17%[46.1 µM] and SARS PLpro yeast 0%.
CCC(C(=O)Nc1ccccc1C(=O)OC)n1c(C)c2cnn(-c3ccccc3)c(=O)c2c1C (stereo not given) was read as Cruzain inh noDet -6%, 2A StopGo inconclusive, Lassa entry inh -27%[46.1 µM], Marburg entry inh inconclusive and Cruzain inh Det -7.5%.
CC(C)c1cc(C(=O)Nc2cccc(C(F)(F)F)c2)no1 was read as RE007 growth inh inconclusive, Cruzain inh noDet -9%, 2A StopGo 40%[activator], NS1 function inh -4%, Lassa entry inh 7%, Marburg entry inh inconclusive, SARS PLpro yeast -10% and Cruzain inh Det -12%.
For O=C(Cn1nnc2ccccc2c1=O)Nc1cccc(S(=O)(=O)N2CCOCC2)c1 the results were RE007 growth inh 0%, NS1 function inh 8% and SARS PLpro yeast 2%.
For Cc1cccc(NC(=O)c2cc(S(=O)(=O)N3CCN(c4ccccc4F)CC3)ccc2F)c1C the results were Cruzain inh noDet -2%, 2A StopGo -17%, Lassa entry inh 28%[46.1 µM] and Cruzain inh Det 1.4%.
O=C(COC(=O)c1cccnc1)c1ccc(Cl)cc1 was read as RE007 growth inh -5%, Cruzain inh noDet -14%, 2A StopGo 3%, NS1 function inh 8%, Lassa entry inh 6%, Marburg entry inh -2%, SARS PLpro yeast -22% and Cruzain inh Det -0.7%.
COc1cc2cc(CN(CCCO)S(=O)(=O)c3ccccc3Cl)c(=O)[nH]c2cc1OC was read as RE007 growth inh -7%, Cruzain inh noDet inconclusive, 2A StopGo -17%, NS1 function inh -14%, Lassa entry inh 0%, Marburg entry inh -6%, SARS PLpro yeast 4% and Cruzain inh Det -3.5%.
For CCS(=O)(=O)c1ccccc1C(=O)N(Cc1cccnc1)c1nc2cc(C)c(C)cc2s1 the results were Cruzain inh noDet 11%, 2A StopGo 21%, Lassa entry inh -28%[46.1 µM] and Cruzain inh Det -2.6%.
For FC(F)(F)c1cccc(N2CCN(c3ccc4nnc(-c5ccccc5)n4n3)CC2)c1 the results were RE007 growth inh 14%, Cruzain inh noDet inconclusive, 2A StopGo inconclusive, NS1 function inh 0%, Lassa entry inh 44%[14.3 µM], Marburg entry inh -5%, SARS PLpro yeast 4% and Cruzain inh Det -8.5%.
For Cc1cc(C)cc(NC(=O)Nc2ccc(S(=O)(=O)Nc3cc(C)on3)cc2)c1 the results were RE007 growth inh -11%, 2A StopGo -3%, NS1 function inh -15% and SARS PLpro yeast 1%.
`CCC(C)NC(=O)C1CCN(S(=O)(=O)c2cccc3cccnc23)CC1` (stereo not given) gave RE007 growth inh 13%, Cruzain inh noDet -7%, 2A StopGo -30%, NS1 function inh 0%, SARS PLpro yeast 2% and Cruzain inh Det 0.2%.
`Cc1cc(S(=O)(=O)NCc2ccccc2)ccc1OCC(=O)N1CCOCC1` gave RE007 growth inh -11%, 2A StopGo 4%, NS1 function inh -1%, Lassa entry inh 1%, Marburg entry inh -1% and SARS PLpro yeast 0%.
O=C(NCCc1ccccc1)c1ccc(S(=O)(=O)N2CCCC2)cc1 was read as RE007 growth inh -6%, 2A StopGo 33%[activator], Lassa entry inh -11%, Marburg entry inh inconclusive and SARS PLpro yeast 1%.
`Cc1nn(CC(=O)N2CCN(C(=O)c3ccco3)CC2)c(C)c1[N+](=O)[O-]` gave RE007 growth inh 4%, 2A StopGo -14%, Lassa entry inh 17%, Marburg entry inh 4% and SARS PLpro yeast -12%.
For O=c1cc(-c2ccccc2)nc(SCc2ccc(Cl)cc2)[nH]1 the results were RE007 growth inh 5%, Cruzain inh noDet inconclusive, 2A StopGo -13%, NS1 function inh 0%, Lassa entry inh 0%, Marburg entry inh -5%, SARS PLpro yeast 2% and Cruzain inh Det -2.0%.
CCOc1ccc(CN2C(=O)c3ccccc3Sc3ccc(C(=O)NC)cc32)cc1 was read as Cruzain inh noDet inconclusive, 2A StopGo -12%, Lassa entry inh -19%[46.1 µM], Marburg entry inh inconclusive and Cruzain inh Det -6.5%.
O=C1NCCN/C1=C\C(=O)c1cccc(Br)c1 was read as RE007 growth inh -25%, 2A StopGo 61%[activator], NS1 function inh -45% and SARS PLpro yeast -4%.
CSc1ccc(/C=C(/NC(=O)c2ccc(C)cc2)C(=O)Nc2cccc(F)c2)cc1 was read as RE007 growth inh -5%, Cruzain inh noDet 20µM*, 2A StopGo -9%, NS1 function inh 9%, Lassa entry inh -7%, Marburg entry inh -31%, SARS PLpro yeast -20% and Cruzain inh Det -1.4%.
`Cc1cc(=O)n2nc(N3CCCC(C(=O)NCc4ccccc4Cl)C3)sc2n1` (stereo not given) gave RE007 growth inh -16%, 2A StopGo 3%, NS1 function inh 8%, Lassa entry inh 4%[46.1 µM], Marburg entry inh 21%[46.1 µM] and SARS PLpro yeast 2%.

An excerpt of the results above, for reference:
CC(C)c1cc(C(=O)Nc2cccc(C(F)(F)F)c2)no1 was read as RE007 growth inh inconclusive, Cruzain inh noDet -9%, 2A StopGo 40%[activator], NS1 function inh -4%, Lassa entry inh 7%, Marburg entry inh inconclusive, SARS PLpro yeast -10% and Cruzain inh Det -12%.
For O=C(Cn1nnc2ccccc2c1=O)Nc1cccc(S(=O)(=O)N2CCOCC2)c1 the results were RE007 growth inh 0%, NS1 function inh 8% and SARS PLpro yeast 2%.

The list goes on:
O=C(NC(=O)N1CCC2(CC1)OCCO2)c1ccc(Cl)cc1 was read as RE007 growth inh 2%, 2A StopGo -4%, Lassa entry inh -1%, Marburg entry inh 2% and SARS PLpro yeast 8%.
COc1ccc(/C=N/n2cnnc2)cc1Br was read as RE007 growth inh 8%, 2A StopGo -6%, NS1 function inh -3%, Lassa entry inh 11%, Marburg entry inh 0%[14.2 µM] and SARS PLpro yeast 0%.
`CCOc1ccc(NC(=O)c2oc3ccccc3c2NC(=O)c2cc3ccccc3o2)cc1` gave Cruzain inh noDet -15%, 2A StopGo 12%, Lassa entry inh 18%[46.1 µM], Marburg entry inh inconclusive and Cruzain inh Det -0.7%.
`CCCCOc1ccc(-c2ncc(Cl)cn2)cc1` gave RE007 growth inh 6%, Cruzain inh noDet inconclusive, 2A StopGo 63%[activator], NS1 function inh 3%, Lassa entry inh inconclusive, Marburg entry inh inconclusive, SARS PLpro yeast 3% and Cruzain inh Det 3.4%.
`O=C(NC1CCCCC1)C1CCCN1S(=O)(=O)c1cccc2nsnc12` (stereo not given) gave RE007 growth inh 9%, Cruzain inh noDet 0%, 2A StopGo -5%, NS1 function inh -9%, Lassa entry inh -13%, Marburg entry inh -13%, SARS PLpro yeast 8% and Cruzain inh Det 2.3%.
